Source: PubChem BioAssay (Broad Institute)
Ecoli rRNA inh – inhibits bacterial ribosomal RNA function over humanized ribosomes; E. coli WT GFP vs humanized-ribosome RFP mutants, fluorescence, 24 h; stronger effect = lower value; DMSO median 0, no signal -100; 350,000 tested, 1.6% active; GFP signal change (wild-type ribosome), % (no concentration beside the values);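 active means significant combined selectivity score with lowered wild-type GFP, culture density cut under 30%, mutant RFP and density less affected; inactive means any of these conditions unmet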; further: one replicate is shown; some compounds called inactive have numbers as strong as hits
FGF22 binding – FGF22 (human) thermal shift binding; recombinant FGF22 thermal shift, SYPRO orange fluorescence; percent of sucrose octasulfate shift, DMSO zero; calls only at 9.99 µM; 340,000 tested, 1.5% active; AID 651658;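 active means melting point raised past a set limit in the mean and every replicate; three in four hits are not shown here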
Target sequence (Q9HCT0 whole entry, looked up): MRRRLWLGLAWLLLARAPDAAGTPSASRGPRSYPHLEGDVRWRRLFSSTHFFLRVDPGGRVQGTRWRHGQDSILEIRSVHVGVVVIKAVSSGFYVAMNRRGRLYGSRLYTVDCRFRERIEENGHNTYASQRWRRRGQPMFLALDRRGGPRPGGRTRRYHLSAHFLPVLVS
Ecoli rRNA inh OD600 – also measured in Ecoli rRNA inh; calls as there; OD600 change, %; measured here: OD600 growth;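 optical density of the mix in the first replicate; 0 = DMSO median and -100 = no signal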
Ecoli rRNA inh RFP – further read-out of Ecoli rRNA inh, marked with its call; RFP signal change, %; measured here: RFP humanized mutant strains;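 first replicate; 0 = DMSO median and -100 = no signal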
* hit, by the source's call; i = inactive.

SMILES	Ecoli rRNA inh	Ecoli rRNA inh OD600	Ecoli rRNA inh RFP	FGF22 binding
C[C@@H]1CN([C@H](C)CO)C(=O)Cc2cc(NC(=O)NC3CCCCC3)ccc2O[C@@H]1CN(C)C(=O)Nc1ccccc1	2	5	-0.7	i
COc1ccc(S(=O)(=O)N2C[C@H](O)COC[C@H]3O[C@H](CC(=O)NCCN4CCCCC4)CC[C@@H]32)cc1	4	10	-1.3	i
CCC(=O)N[C@@H]1C=C[C@@H](CC(=O)NCc2ccc(OC)cc2)O[C@@H]1CO	9	15	-1.8	i
C[C@@H]1CCCCO[C@@H](CN(C)Cc2ccccc2)[C@@H](C)CN([C@@H](C)CO)C(=O)c2cc(NC(=O)Nc3ccc4c(c3)OCO4)ccc2O1	3	-13	6.5	i
CCC(=O)N1CC2(CCN(C(=O)Cc3ccccc3)CC2)c2c(n(C)c3cc(OC)ccc23)[C@@H]1CO	-6	-4	-1.9	i
C[C@@H]1CN([C@@H](C)CO)C(=O)c2cccc(NC(=O)NC3CCCCC3)c2O[C@@H]1CN(C)C(=O)Nc1ccc(F)cc1	-1	1	2.7	i
C[C@@H]1CN([C@@H](C)CO)S(=O)(=O)c2ccc(C3=CCCCC3)cc2O[C@H]1CN(C)Cc1ccncc1	-26	-53	17	i
O=S(=O)(c1ccccc1)N1CCCCN2[C@H](CO)[C@H](c3ccc(C#CC4CCCC4)cc3)[C@H]2C1	-46	-55	-3.0	i
O=S1(=O)CC(N2CCCC2)CN1Cc1cn(Cc2ccc(C(F)(F)F)cc2)nn1 (stereo not drawn)	8	9	-5.2	i
C[C@H](CO)N1C[C@H](C)[C@@H](CN(C)C(=O)Nc2ccc(C(F)(F)F)cc2)OCCCC[C@H](C)Oc2ccc(NC(=O)CCC(F)(F)F)cc2C1=O	-4	1	0.9	i

SMILES	Ecoli rRNA inh	Ecoli rRNA inh OD600	Ecoli rRNA inh RFP	FGF22 binding
Cc1ccc(S(=O)(=O)N(C)C[C@@H]2Oc3ccc(NC(=O)C4CC4)cc3CC(=O)N([C@@H](C)CO)C[C@@H]2C)cc1	3	3	-1.2	i
O=C(C[C@@H]1CC[C@H]2[C@@H](COC[C@H](O)CN2C(=O)Nc2ccc(F)cc2)O1)NC1Cc2ccccc2C1	3	19	0.2	i
Cc1cc(C(=O)Nc2cccc3c2O[C@@H](CN(C)Cc2ccc(Oc4ccccc4)cc2)[C@H](C)CN([C@H](C)CO)C3=O)n(C)n1	-6	-10	-0.1	i
C[C@@H]1CN([C@@H](C)CO)C(=O)Cc2cc(NC(=O)Nc3cccc4ccccc34)ccc2O[C@H]1CN(C)S(=O)(=O)c1ccccc1	-1	0	1.4	i
C[C@@H]1CN([C@@H](C)CO)C(=O)c2cccc(NC(=O)C3CC3)c2O[C@@H]1CN(C)Cc1ccccc1	4	3	1.7	i
COc1ccc2c3c([nH]c2c1)[C@@H](CO)N(Cc1nccs1)CC31CCN(C(=O)C2CCC2)CC1	3	7	5.2	i
CO[C@@H](CN(C)S(=O)(=O)c1cn(C)cn1)[C@H](C)CN(C(=O)Nc1ccc(F)cc1)[C@H](C)CO	-3	-1	-0.5	i
C[C@@H]1CN([C@@H](C)CO)C(=O)c2cc(NC(=O)C3CC3)ccc2O[C@H]1CN(C)Cc1ccc(C(F)(F)F)cc1	-3	-9	-1.6	i
COC(=O)c1ccc2nc(-c3cccc(Br)c3)c(Cc3cccc(Cl)c3)n2c1	-13	0	6.3	i
O=C1CN(Cc2ccc(F)cc2)C[C@@H]2[C@H](c3ccc(-c4ccccc4)cc3)[C@@H](CO)N12	5	-5	-3.4	i

SMILES	Ecoli rRNA inh	Ecoli rRNA inh OD600	Ecoli rRNA inh RFP	FGF22 binding
C/C=C/c1ccc([C@@H]2[C@H](CO)N(C(C)=O)C23CN(C(=O)c2cnccn2)C3)cc1	2	7	2.0	i
Cc1cc(C(=O)Nc2cccc3c2O[C@H](CN(C)S(C)(=O)=O)[C@@H](C)CN([C@@H](C)CO)C3=O)n(C)n1	7	13	-0.4	i
CCCN(C)C[C@H]1OCCCC[C@@H](C)Oc2ccc(NC(=O)Nc3ccc4c(c3)OCO4)cc2C(=O)N([C@H](C)CO)C[C@@H]1C	2	4	0.5	i
Cc1cccc(S(=O)(=O)N2CC[C@@H]3[C@H](CO)Nc4ccc(C5=CCCCC5)cc4[C@@H]32)c1	-7	9	-0.9	i
CC(C)NC(=O)Nc1ccc2c(c1)CC(=O)N([C@H](C)CO)C[C@@H](C)[C@@H](CN(C)CC1CC1)O2	2	6	1.4	i
C/C=C/c1ccc2c(c1)O[C@@H](CN(C)C(C)=O)[C@@H](C)CN([C@@H](C)CO)S2(=O)=O	-2	3	-0.8	i
CCCNC(=O)C[C@@H]1CC[C@H]2[C@@H](COC[C@@H](O)CN2C(=O)C2CCOCC2)O1	-1	-8	6.7	i
O=C(C[C@@H]1CC[C@H]2[C@@H](COC[C@H](O)CN2C(=O)c2ccccn2)O1)N1CCN(c2ccccc2)CC1	5	11	-3.9	i
CC(=O)N1C[C@@H]2N[C@H](C1)C2c1ccc(-c2ccccc2)cc1 (stereo partly drawn)	-1	-2	-1.2	i
COc1ccc(CN(C)C[C@H]2Oc3ccc(NS(C)(=O)=O)cc3CC(=O)N([C@@H](C)CO)C[C@H]2C)cc1	5	1	0.2	i

SMILES	Ecoli rRNA inh	Ecoli rRNA inh OD600	Ecoli rRNA inh RFP	FGF22 binding
CC(C)C#Cc1cnc2c(c1)C(=O)N([C@@H](C)CO)C[C@H](C)[C@H](CN(C)C(=O)c1cccnc1)O2	5	9	-4.0	i
C[C@H]1CN([C@@H](C)CO)S(=O)(=O)c2ccc(C3=CCCC3)cc2O[C@@H]1CN(C)C(=O)Cc1ccncc1	1	3	-0.2	i
C[C@H](CO)N1C[C@H](C)[C@@H](CN(C)S(=O)(=O)c2ccc(Cl)cc2)Oc2ccc(NC(=O)Nc3ccc4c(c3)OCO4)cc2CC1=O	-6	-10	-3.7	i
CCCNC(=O)[C@H]1[C@H](CO)[C@H]2Cn3c(ccc(-c4ccc(F)cc4)c3=O)[C@@H]1N2CCC	1	5	-2.8	i
Cc1noc(C)c1S(=O)(=O)N(C)C[C@H]1Oc2ccc(NC(=O)Nc3ccc(C(F)(F)F)cc3)cc2CC(=O)N([C@@H](C)CO)C[C@@H]1C	8	13	-1.4	i
C[C@H]1CN([C@@H](C)CO)C(=O)c2cc(NC(=O)CCC(F)(F)F)ccc2O[C@@H]1CN(C)C(=O)Nc1ccc(C(F)(F)F)cc1	2	3	-2.5	i
O=C(C[C@@H]1C[C@H]2c3cc(NC(=O)NC4CCCCC4)ccc3O[C@H]2[C@H](CO)O1)NCC1CC1	3	-11	1.0	i
C[C@H](CO)N1C[C@H](C)[C@H](CN(C)Cc2ccc(C(=O)O)cc2)Oc2ccc(NC(=O)Nc3ccccc3)cc2C1=O	6	4	-2.5	i
COc1ccccc1C#Cc1cnc2c(c1)C(=O)N([C@@H](C)CO)C[C@H](C)[C@@H](CN(C)C(=O)CC1CC1)O2	1	10	8.3	i
N#C[C@@H]1N[C@H](CO)[C@H]1c1ccc(-c2ccccc2F)cc1	3	2	1.3	i

SMILES	Ecoli rRNA inh	Ecoli rRNA inh OD600	Ecoli rRNA inh RFP	FGF22 binding
O=C(Nc1ccccc1)N[C@@H]1CC[C@@H](CCn2cc(C3(O)CCCC3)nn2)O[C@@H]1CO	-1	4	-4.1	i
O=C(c1cccnc1)N1CC(=O)N2[C@H](C1)[C@H](c1ccc(-c3ccccc3F)cc1)[C@@H]2CO	0	3	-0.8	i
C[C@H]1CN([C@@H](C)CO)S(=O)(=O)c2ccc(C3=CCCC3)cc2O[C@H]1CN(C)C(=O)C1CCCCC1	-12	-32	17	i
COc1ccccc1-c1cn(CC[C@H]2CC[C@@H](NC(=O)C3CCOCC3)[C@@H](CO)O2)nn1	1	6	-3.6	i
C[C@@H]1CN([C@H](C)CO)C(=O)Cc2cc(NC(=O)Nc3ccc(C(F)(F)F)cc3)ccc2O[C@@H]1CN(C)Cc1ccc(C(F)(F)F)cc1	0	6	-2.6	i
C[C@@H]1CN([C@@H](C)CO)S(=O)(=O)c2ccc(C#Cc3ccccn3)cc2O[C@@H]1CN(C)Cc1cccc(F)c1	-6	-1	5.6	i
COc1ccc2c3c([nH]c2c1)[C@@H](CO)N(Cc1ccccc1F)CC31CCN(C(=O)C2CCCC2)CC1	4	-18	6.3	i
C[C@@H]1CN([C@H](C)CO)C(=O)c2cc(N(C)C)ccc2O[C@@H]1CN(C)S(=O)(=O)c1ccc(Cl)cc1	-3	-4	0.8	i
C[C@H]1CN([C@@H](C)CO)C(=O)c2cc(NC(=O)CCCN(C)C)ccc2O[C@H]1CN(C)C(=O)Nc1ccc(F)cc1	0	-4	0.2	i
CN(C)C(=O)C[C@@H]1C[C@@H]2c3cc(NS(=O)(=O)c4ccc(F)cc4)ccc3O[C@@H]2[C@@H](CO)O1	-1	-2	-4.2	i

SMILES	Ecoli rRNA inh	Ecoli rRNA inh OD600	Ecoli rRNA inh RFP	FGF22 binding
COc1ccc2c3c(n(C)c2c1)[C@@H](CO)N(C(=O)C1CC1)CC31CCN(C(=O)C2CCOCC2)CC1	8	16	-0.5	i
C[C@@H]1CN([C@@H](C)CO)C(=O)c2cc(N(C)C)ccc2O[C@H]1CN(C)S(=O)(=O)c1ccccc1	-6	-6	-3.1	i
C[C@@H](NC(=O)[C@H]1[C@H](CO)[C@H]2Cn3c(ccc(C4=CCCCC4)c3=O)[C@H]2N1C)c1ccccc1	-3	-19	0.5	i
COc1ccc(NC(=O)N(C)C[C@H]2OCCCC[C@H](C)Oc3ccc(NC(=O)Nc4cccc5ccccc45)cc3C(=O)N([C@H](C)CO)C[C@H]2C)cc1	-6	3	-2.3	i
CO[C@@H]1CC[C@@H]2CCN(C)C(=O)[C@@H](C)[C@H](OC)CN(C)C(=O)c3cccc(C#N)c3OC[C@@H]1O2	2	5	-6.8	i
C[C@@H]1CCCCO[C@H](CN(C)S(=O)(=O)c2ccc(F)cc2)[C@H](C)CN([C@@H](C)CO)C(=O)c2cc(NC(=O)CCC(F)(F)F)ccc2O1	-1	-2	1.3	i
CO[C@H]1CC[C@@H]2CCN(C)C(=O)C[C@@H](c3ccccc3)CN(C)C(=O)c3cccc(C#N)c3OC[C@H]1O2	2	5	-5.2	i
Cc1noc(C)c1NC(=O)N(C)C[C@H]1Oc2ccc(NC(=O)Nc3ccc(C(F)(F)F)cc3)cc2CC(=O)N([C@@H](C)CO)C[C@@H]1C	1	-7	-0.7	i
C[C@@H]1CN([C@@H](C)CO)C(=O)c2cc(C#CCc3ccccc3)cnc2O[C@@H]1CN(C)Cc1ccccc1	-6	-38	27	i
CO[C@@H]1CN(C)C(=O)c2ccc(NS(=O)(=O)c3ccccc3C)cc2OC[C@@H](C)N(C)C[C@@H]1C	3	6	-1.7	i

SMILES	Ecoli rRNA inh	Ecoli rRNA inh OD600	Ecoli rRNA inh RFP	FGF22 binding
COc1ccc(-c2ccc([C@H]3[C@@H](C#N)N(C(=O)c4cccnc4)[C@@H]3CO)cc2)cc1	-4	1	-1.1	i
O=C(NC[C@H]1[C@H](c2ccccc2)[C@@H](CO)N1CC1CC1)c1cccnc1	2	2	-4.2	i
C[C@@H]1CN([C@@H](C)CO)C(=O)c2cc(NC(=O)NC3CCCCC3)ccc2O[C@@H](C)CCCCO[C@H]1CN(C)C(=O)c1ccccc1	0	0	-5.3	i
COc1ccc2c3c([nH]c2c1)[C@H](CO)N(C(=O)c1cccnc1)CC31CCN(Cc2cccnc2)CC1	0	9	-3.4	i
O=C(C[C@H]1C[C@@H]2c3cc(NC(=O)Nc4ccccc4F)ccc3O[C@@H]2[C@H](CO)O1)NC1CCCCC1	6	5	3.9	i
O=C(C[C@H]1C[C@@H]2c3cc(NC(=O)Cc4ccncc4)ccc3O[C@@H]2[C@H](CO)O1)NCc1ccccn1	-1	-1	0.2	i

Ten structures already listed, sorted by molar mass, low to high:
SMILES	Ecoli rRNA inh	Ecoli rRNA inh OD600	Ecoli rRNA inh RFP	FGF22 binding
O=C(NC[C@H]1[C@H](c2ccccc2)[C@@H](CO)N1CC1CC1)c1cccnc1	2	2	-4.2	i
COc1ccc(-c2ccc([C@H]3[C@@H](C#N)N(C(=O)c4cccnc4)[C@@H]3CO)cc2)cc1	-4	1	-1.1	i
CO[C@@H]1CC[C@@H]2CCN(C)C(=O)[C@@H](C)[C@H](OC)CN(C)C(=O)c3cccc(C#N)c3OC[C@@H]1O2	2	5	-6.8	i
O=C(C[C@H]1C[C@@H]2c3cc(NC(=O)Cc4ccncc4)ccc3O[C@@H]2[C@H](CO)O1)NCc1ccccn1	-1	-1	0.2	i
CO[C@@H]1CN(C)C(=O)c2ccc(NS(=O)(=O)c3ccccc3C)cc2OC[C@@H](C)N(C)C[C@@H]1C	3	6	-1.7	i
O=C(C[C@H]1C[C@@H]2c3cc(NC(=O)Nc4ccccc4F)ccc3O[C@@H]2[C@H](CO)O1)NC1CCCCC1	6	5	3.9	i
CO[C@H]1CC[C@@H]2CCN(C)C(=O)C[C@@H](c3ccccc3)CN(C)C(=O)c3cccc(C#N)c3OC[C@H]1O2	2	5	-5.2	i
C[C@@H]1CN([C@@H](C)CO)C(=O)c2cc(NC(=O)NC3CCCCC3)ccc2O[C@@H](C)CCCCO[C@H]1CN(C)C(=O)c1ccccc1	0	0	-5.3	i
C[C@@H]1CCCCO[C@H](CN(C)S(=O)(=O)c2ccc(F)cc2)[C@H](C)CN([C@@H](C)CO)C(=O)c2cc(NC(=O)CCC(F)(F)F)ccc2O1	-1	-2	1.3	i
COc1ccc(NC(=O)N(C)C[C@H]2OCCCC[C@H](C)Oc3ccc(NC(=O)Nc4cccc5ccccc45)cc3C(=O)N([C@H](C)CO)C[C@H]2C)cc1	-6	3	-2.3	i

The list is partial; count on the stated rates, not on these rows.
